Screening data from PubChem BioAssay.
VDR inh: vitamin D3 receptor (human) inhibition; P11473; Potency, µM, without a hit: max response, negative = inhibition, actives largely listed as inhibitors; VDR-SRC2-3 peptide fluorescence polarization, 2 h; 400,000 tested, 0.93% active; active means well fitted inhibition curve with a large enough effect; inconclusive means small, poorly fitted or top-dose-only effect, or another doubt; inactive means no such curve, though single readings can be large or run the other way; further: series mostly up to about 120 µM
Target sequence (P11473 whole entry, looked up): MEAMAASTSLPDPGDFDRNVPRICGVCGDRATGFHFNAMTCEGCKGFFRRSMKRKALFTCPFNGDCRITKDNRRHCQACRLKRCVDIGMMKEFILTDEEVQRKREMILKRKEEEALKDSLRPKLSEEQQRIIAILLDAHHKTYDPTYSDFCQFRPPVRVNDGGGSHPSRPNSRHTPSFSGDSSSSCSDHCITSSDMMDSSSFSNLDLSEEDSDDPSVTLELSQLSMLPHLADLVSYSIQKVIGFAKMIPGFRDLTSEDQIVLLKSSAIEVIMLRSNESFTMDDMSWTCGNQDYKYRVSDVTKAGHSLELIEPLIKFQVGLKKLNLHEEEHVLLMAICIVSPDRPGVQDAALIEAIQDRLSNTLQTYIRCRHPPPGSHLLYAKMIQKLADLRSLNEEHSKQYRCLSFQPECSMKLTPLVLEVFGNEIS
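Fluorescence polarization assay measuring small-molecule disruption of VDR binding to the coregulator peptide SRC2-3. Compounds were pin-transferred (23 nl) into the reagent mix and incubated 2 h at room temperature before reading.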
Starred values were filed as active, the others as inactive; ? = inconclusive; & = joins results of further samples. On the % scale 0 is the no-effect control and ±100 the full control effect; potency means the concentration at half of the fitted maximal effect.

The first 6 compounds (preview)
molecule	VDR inh
Cc1cccc(C)c1OCc1nc2ccccc2c(=O)n1/N=C/c1c[nH]c2ccccc12	8%
Cc1cccc(N2CCN(C(c3ccccc3)c3nnc(-c4ccccc4F)o3)CC2)c1C (stereo not drawn)	-5%
COc1cccc(CN2CCNC(=O)C2CC(=O)NCCn2ccc3ccccc32)c1OC (stereo not drawn)	9%
Cc1cccc(CCNC(=O)c2nnc(Cc3ccc(Cl)cc3)o2)c1	-3%
CC(C)c1c(C(=O)N/N=C/c2ccc(Cl)cc2Cl)nnn1-c1nonc1N	-4%
O=C(/C=C/c1ccccc1F)N1CCN(c2ccccn2)CC1	-3%

The list itself, from the first entry:
molecule	VDR inh
Cc1cccc(C)c1OCc1nc2ccccc2c(=O)n1/N=C/c1c[nH]c2ccccc12	8%
Cc1cccc(N2CCN(C(c3ccccc3)c3nnc(-c4ccccc4F)o3)CC2)c1C (stereo not drawn)	-5%
COc1cccc(CN2CCNC(=O)C2CC(=O)NCCn2ccc3ccccc32)c1OC (stereo not drawn)	9%
Cc1cccc(CCNC(=O)c2nnc(Cc3ccc(Cl)cc3)o2)c1	-3%
CC(C)c1c(C(=O)N/N=C/c2ccc(Cl)cc2Cl)nnn1-c1nonc1N	-4%
O=C(/C=C/c1ccccc1F)N1CCN(c2ccccn2)CC1	-3%
CN(C)c1nc(OCCNC(=O)COc2ccc(Cl)cc2Cl)nc(N2CCOCC2)n1	1%
CC(OC(=O)c1ccc(-n2cnnn2)cc1)C(=O)NCc1ccccc1 (stereo not drawn)	7%
Clc1ccc(-c2cn3cc(Br)ccc3n2)cc1Cl	5%
COC/C=C/C1=CC(=O)C[C@H](c2ccc3c(c2)OCO3)C1	-4%
CCCCC(=O)NC(=S)Nc1cccc(Cl)c1N1CCCCC1	4%
COc1ccc(C(=O)NCc2ccccc2CN2CCCC2)cc1S(=O)(=O)Nc1ccc(C)cc1	6%
Cc1ccccc1OCCC(=O)OCC(=O)NC(C)c1ccccc1 (stereo not drawn)	2%
COC(=O)CSc1ncnc2c1sc1nc3c(cc12)COC(C)(C)C3	?
O=C1NN=C(c2ccc(Cl)cc2)CC1c1cccc(Br)c1 (stereo not drawn)	8%
COc1ccc(NC(=O)CNC(=O)c2c(C)nn(C)c2Cl)cc1	11%
Cc1noc(C)c1CSCC(=O)Nc1cc(S(=O)(=O)N2CCOCC2)ccc1OCC(F)(F)F	2%
CN(C)C(CNC(=O)c1cccc(S(=O)(=O)Nc2ccc(SC(F)F)cc2)c1)c1ccccc1 (stereo not drawn)	?
COCCN(Cc1cc2ccc(C)cc2n2nnnc12)Cc1nnnn1C(C)(C)C	0%
COc1ccc2c(Cl)c(C(=O)N/N=C/c3ccc4c(c3)OCO4)sc2c1	-5%
CC1(C)CC2CC(C)(CN2C(=O)C23CCC(C)(C(=O)O2)C3(C)C)C1 (stereo not drawn)	-4%
N#Cc1cccc(-c2nccc(-n3ccnc3)n2)c1	50µM*
COc1ccc(C)cc1NC(=O)C1CCCN(S(=O)(=O)c2ccc3c(c2)oc(=O)n3C)C1 (stereo not drawn)	-24%
O=C(CNc1ccc(Br)cc1)c1ccc(Br)s1	?
O=C1C=C(c2ccc3c(c2)oc2ccccc23)C[C@@H](c2ccc(Cl)cc2)C1	10%
COCCN(C(=O)COC(=O)CCc1ccccc1)c1c(N)n(Cc2ccccc2)c(=O)[nH]c1=O	-9%
CCc1nc2ccccc2n1CC(=O)N(C(C)CC)C1CCS(=O)(=O)C1 (stereo not drawn)	7%
Cc1onc(-c2ccccc2Cl)c1C(=O)NCCn1c(C)cc2ccccc21	-10%
COc1ccccc1[C@@H]1C(c2cccc(Cl)c2)=NN(c2ccccc2)[C@H]1C(=O)N1CCOC1=O	2%&4%
Cc1noc(C)c1S(=O)(=O)Nc1cccc(C(F)(F)F)c1	2%
COc1ccc(-c2csc(NC(=O)C3=COCCO3)n2)c(OC)c1	4%
O=C(NCCCN1CCOCC1)c1onc(CSc2ccccn2)c1C(=O)NCCCN1CCOCC1	14%
COc1cccc(/C=N/NC(=O)c2c(C)nc3ccc(Br)cn23)c1O	-10%
CCn1c(SCc2nc3scc(-c4ccccc4)c3c(=O)[nH]2)nnc1-c1ccc(Cl)cc1	19%
CSc1cccc(NC(=O)COc2ccccc2)c1	-21%
Cc1cc(C)n2c(SCC(=O)NCc3ccc4c(c3)OCO4)nnc2n1	?
O=C(Nc1ccccc1)c1ccc2c(O)c(S(=O)(=O)c3ccc(Cl)cc3)c(=O)[nH]c2c1	19%
O=C1CCCc2ccccc2N1Cc1cccc(F)c1	-5%
Cc1n(-c2ccccc2)c2ccc(Cl)cc2[n+]1CCO	2%
O=C(Nc1cccc([N+](=O)[O-])c1)NN1CCCCCC1	1%
O=[N+]([O-])c1ccc(C=NN2CCCCCC2)cc1	-14%
COc1ccc(-c2nc3ccccc3c(C(=O)Nc3ccc(S(=O)(=O)Nc4cc(C)on4)cc3)c2C)cc1	-4%
CN(c1ccccc1)c1nc(N)c([N+](=O)[O-])c(Nc2ccc(F)cc2)n1	-14%
O=C1C=C(c2ccc3[nH]ccc3c2)CCC1	-9%
COc1ccc(NCc2nnc(SCC(=O)Nc3ccc(OC)cc3OC)o2)cc1	-11%
O=C(Nc1ccccc1C(=O)NC(Cc1ccc(O)cc1)C(=O)O)c1ccccc1 (stereo not drawn)	-14%
CCCOc1ccc(N2C(=O)CC(N3CCCC(C(=O)N4CCCC4)C3)C2=O)cc1 (stereo not drawn)	0%
O=C(NCCO)c1cccc2c1-c1ccccc1C2=O	-1%
COc1ccc(C2C(C#N)=C(N)Oc3c2oc(CO)cc3=O)cc1 (stereo not drawn)	-8%
Cc1ccc(NC(=O)COC(=O)c2nn(C)c(=O)c3ccccc23)cc1F	21%
CCOC(=O)c1ccc(-c2ccc(/C=N/NC(=O)Cc3nnc(N)s3)o2)cc1	5%
Cc1[nH]c2ccccc2c1C(=O)C(=O)NCC1CCCO1 (stereo not drawn)	7%
CCOc1ccccc1N=Nc1c(C)[nH]n(C(N)=S)c1=O	14%
O=C(CCc1ccccc1)N=C1SC2CS(=O)(=O)CC2N1c1ccccc1 (stereo not drawn)	-1%
COc1ccccc1NC(=O)c1cc(Sc2nncn2C)nc2ccccc12	-11%
Nc1n[nH]c(N)c1N=Nc1ccccc1	-4%
COc1ccc(OCC(O)CN2CCc3ccccc3C2)cc1 (stereo not drawn)	16%
Cc1ccc(NC(=O)c2ccco2)c(NC(=O)c2ccccc2)c1	2%
Cc1cccc(NC(=O)CSc2nc3ccccc3o2)c1	11%
CCN1C(=O)c2ccccc2S(=O)(=O)c2ccc(C(=O)NCC(OC)OC)cc21	-10%

Continued.
molecule	VDR inh
CCSc1nnc(NC(=O)C(C(F)(F)F)C(F)(F)F)s1	-9%
OCCN(Cc1ccccc1)c1ncnc2sccc12	16%
Cc1ccc(-n2nc(C)c3c(C)c(CCC(=O)NCC4CCCO4)c(=O)n(C)c32)cc1 (stereo not drawn)	-13%
CSc1ncc2c(n1)-c1ccccc1N(Cc1ccccc1C)S2(=O)=O	0%
Cc1noc(C)c1CSc1nc2ccccc2nc1NS(=O)(=O)c1ccc(Cl)cc1	-7%
CCOC(=O)c1c(-c2ccc(-c3ccccc3)cc2)csc1NC(=O)c1cccc(N2C(=O)CCC2=O)c1	-8%
CCN(CC(=O)NCc1cccs1)C(=O)c1ccc(-c2ccc(F)cc2)o1	?
NC(=O)N1CCCC1C(=O)Nc1ccc(Cl)c(Cl)c1 (stereo not drawn)	-7%
Cc1cc(F)ccc1Nc1nc2ccccc2n2nnnc12	13%
c1ccc2c(NCC3CCCO3)nc(-c3ccncc3)nc2c1 (stereo not drawn)	2%
CCO[C@@H]1OC(C(=O)N2CCN(Cc3ccc4c(c3)OCO4)CC2)=C[C@H](c2cn(C(C)=O)c3ccccc23)[C@H]1CCCO	-9%
COc1cc(NC(=O)Cn2nc(-c3ccc(C)c(C)c3)ccc2=O)cc(OC)c1	8%
O=C(NC1CCN(Cc2ccccc2)CC1)C1CCCN(S(=O)(=O)c2cccc3nonc23)C1 (stereo not drawn)	14%
CC1CCN(C(=O)CC(NC(N)=O)c2ccccc2Cl)CC1 (stereo not drawn)	8%
CCOC(=O)c1cccc(NC(=O)CN(c2ccc(C)cc2)S(=O)(=O)c2c(C)n[nH]c2C)c1	0%
CCc1ccccc1N(CC(=O)NCc1ccccc1)C(=O)CCC(=O)Nc1ccccn1	21%
CCOC(=O)C1(Cc2cccc(OC)c2)CCN(Cc2cccn2-c2nccs2)CC1	10%
CNc1nc(-c2cccc(C#N)c2)nc2ccccc12	0%
Cc1ccc(N2C(=O)c3ccccc3NC2C(C)Cc2ccc3c(c2)OCO3)cc1 (stereo not drawn)	0%
CCOc1ccccc1N1CCN(C(=O)/C=C/c2cccc([N+](=O)[O-])c2)CC1	-14%

At a glance, some entries already given:
molecule	VDR inh
CCSc1nnc(NC(=O)C(C(F)(F)F)C(F)(F)F)s1	-9%
OCCN(Cc1ccccc1)c1ncnc2sccc12	16%
Cc1ccc(-n2nc(C)c3c(C)c(CCC(=O)NCC4CCCO4)c(=O)n(C)c32)cc1 (stereo not drawn)	-13%
CSc1ncc2c(n1)-c1ccccc1N(Cc1ccccc1C)S2(=O)=O	0%
Cc1noc(C)c1CSc1nc2ccccc2nc1NS(=O)(=O)c1ccc(Cl)cc1	-7%
CCOC(=O)c1c(-c2ccc(-c3ccccc3)cc2)csc1NC(=O)c1cccc(N2C(=O)CCC2=O)c1	-8%
CCN(CC(=O)NCc1cccs1)C(=O)c1ccc(-c2ccc(F)cc2)o1	?

More compounds:
molecule	VDR inh
CN1CCN(c2ccc(Cl)cc2NC(=O)CCN2C(=O)c3ccccc3C2=O)CC1	-13%
COc1cccc(C2NC(=S)NC3=C2CCc2ccccc23)c1 (stereo not drawn)	-20%
CCCC(=O)Nc1c(C(=O)OCC)[nH]c2ccccc12	-8%
CCCCC(=O)NC(=S)Nc1cccc(NC(=O)c2ccco2)c1	-26%
O=C(NC(=S)NCC1CCCO1)c1ccc(Cl)cc1Cl (stereo not drawn)	1%
CC(=O)Nc1cccc(NC(=O)CSc2cn(CC(=O)N(C(C)C)C(C)C)c3ccccc23)c1	-8%
COc1cccc(CN(C)C(=O)CNC(=O)c2ccc3c(c2)OCO3)c1OC	7%
O=S(=O)(c1ccccc1)N1CCC2(CCN(C(c3ccccc3)c3ccccc3)CC2)CC1	7%
CCN(CC)C(=S)SCC(=O)c1ccccc1	17%
CCOc1ccccc1NC(=O)NC(C)c1ccncc1 (stereo not drawn)	12%
CCC1(c2ccc(F)cc2)NC(=O)N(CC(=O)N2CCN(S(=O)(=O)c3ccc(C)cc3C)CC2)C1=O (stereo not drawn)	-4%
COc1ccc(S(=O)(=O)N2CCOCC2)cc1NC(=O)COC(=O)c1oc2ccccc2c1C	-23%
CC1CCCC(N2CCN(C(=O)c3ccc([N+](=O)[O-])cc3)CC2)C1 (stereo not drawn)	10%
COc1ccc(OCC(=O)NC(=S)Nc2ccc(S(=O)(=O)Nc3cc(OC)nc(OC)n3)cc2)cc1	2%
CC1(c2nnc(-c3ccccc3)o2)CC(c2ccc([N+](=O)[O-])cc2)=NO1 (stereo not drawn)	-7%
CCOC(=O)C1(Cc2ccc(OC)cc2)CCN(C(=O)CCn2cccn2)CC1	14%
O=C(c1ccccc1)c1ccc(NCCCn2ccnc2)c([N+](=O)[O-])c1	-11%
CCc1ccc(CNC(=O)c2cc(-c3ccc(Cl)s3)nc3ccccc23)cc1	5%
O=C1OC(c2ccccc2)=NC12CC2c1ccc(Cl)cc1 (stereo not drawn)	25µM*
Cc1nn(CCC(=O)NNC(=S)Nc2ccc([N+](=O)[O-])cc2)c(C)c1[N+](=O)[O-]	-7%
OC(Cn1cncn1)(c1ccc(F)cc1)c1ccc(Cl)cc1 (stereo not drawn)	7%
O=C(Cc1ccc(Cl)cc1)NNC(=O)c1cnccn1	-18%
NC(=O)c1cc(S(=O)(=O)Nc2cccc(F)c2)co1	1%
O=C(NCc1ccccc1Cl)c1ccccc1Oc1ccccc1	4%
Cc1cc(NC(=O)c2ccco2)ncc1NC(=O)CCc1ccccc1	18%
COc1ccccc1S(=O)(=O)Nc1cc(S(=O)(=O)N2CCCCC2)ccc1N1CCOCC1	17%
Cc1ccc(C(=O)Nc2ccc(N3CCN(S(C)(=O)=O)CC3)cc2)cc1C	1%
C#CCOCCOCCOCCNc1nc(N2CCOCC2)nc(N2CCN(C(=O)[C@H](Cc3cc4ccccc4[nH]3)n3cc([C@@H](N)Cc4ccc(O)cc4)nn3)CC2)n1	-19%
COc1ccc(-n2c(Cc3cccn3C)nnc2SCC(=O)Nc2ccccc2F)cc1	?
O=C(O)CN1CCN(Cc2ccc(F)cc2Cl)C1=O	-21%
CC(=O)C(Sc1nn(C)c(=S)s1)C(=O)Nc1ccccc1 (stereo not drawn)	79µM*
CN1CCN(c2ccc(Cl)cc2NC(=O)/C=C/c2ccc(F)cc2)CC1	-9%
COc1ccc(OC)c(-c2csc(NC(=O)c3ccccc3F)n2)c1	4%
CC(=O)c1ccc(NC(=O)C(C)OC(=O)COc2ccc(C#N)cc2)cc1 (stereo not drawn)	7%
OC1CCCN(Cc2nc(Cc3ccccc3Cl)no2)C1 (stereo not drawn)	26%
COc1ccc(C(=O)Nc2cc(-c3nc4ccccc4s3)ccc2OC)cc1	10%
CN(C)c1nc(Nc2ccccc2)nc(N(C)C)n1	10%
CC(=O)Nc1coc2ccc(Br)cc12	-20%
COC(=O)c1c(NC(NC(=O)c2ccccc2)(C(F)(F)F)C(F)(F)F)sc2c1CCN(C)C2	-14%
COc1ccccc1-c1noc(CCC(=O)Nc2cccc(C)c2)n1	2%
O=C(CSc1cn(Cc2ccccc2)c2ccccc12)N1CCOCC1	9%

Not all compounds are listed; count on the stated rates, not on these rows.
